AID504770: growth inhibitors of E. coli YBA685 in a screen for V. cholerae RctB (chromosome II replication) inhibitors; E. coli YBA685 rctB-dependent plasmid, OD600 growth, 3 h; active compounds read low; z-score (concentration not given with the values); hit rate 0.27% among 130,000;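 active = z-score under -2 on both plates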;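 note: wells of about 30 µL received 100 nL stock; score is relative to mean and SD of the test wells; the first replicate is given; strong numbers were not always called active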
Ba CapD inh: inhibitors of Bacillus anthracis CapD enzyme. hit rate 0.23% among 140,000. purified CapD enzyme, fluorescence intensity read-out; active compounds read low; some hits fall short of the stated cut. z-score (test concentration not listed);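 active = z-score under -4 in either of two replicates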;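 note: stock transfer was 100 nL into about 40 µL; score is relative to mean and spread of the plate; one replicate is shown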
* marks the source's active call; other numbers are inactive results; & = joins results of further samples. The order is random, and some 0.37% of all compounds hit somewhere here.

O=C(CSc1ncnc2c1nnn2Cc1ccc(F)cc1)NC1CCCC1 was read as AID504770 -0.05.
`O=C(COc1ccc(-c2nccc(-c3ccccn3)n2)cc1)N1CCOCC1` gave Ba CapD inh -0.16.
For COc1ccc(NC(=O)N2CCc3ccccc3C2)cc1 the results were AID504770 0 and Ba CapD inh -0.08.
Screening CSc1cc(-c2sc(-c3cccs3)nc2C)[nH]n1 returned AID504770 0.25 and Ba CapD inh 90.
Cc1ccc2nc(COC(=O)C(NS(=O)(=O)c3ccc4c(c3)OCCO4)C(C)C)cc(=O)n2c1 (stereo not given) was read as AID504770 -0.25.
For C=CCCCOC(=O)NNC(=O)CNS(=O)(=O)c1cccc2nsnc12 the results were Ba CapD inh -0.67.
`O=[n+]1cc(-c2ccco2)n([O-])c2c1CCCC2` gave AID504770 -0.35.
For COc1ccc(S(=O)(=O)N2Cc3ccccc3CC2C(=O)N2CCOCC2)cc1OC (stereo not given) the results were AID504770 2.
`CC(=O)N1C(=O)N(C(C)=O)C2C1N(C(C)=O)C(=O)N2C(C)=O` (stereo not given) gave Ba CapD inh 0.41.
COc1cccc(NC(=S)N(C)C2CCN(C)CC2)c1 was read as AID504770 -1.1 and Ba CapD inh -0.19.
`O=C(CSc1nn2c(SCC(=O)Nc3cccc([N+](=O)[O-])c3)nnc2s1)Nc1cccc([N+](=O)[O-])c1` gave Ba CapD inh 0.11.
`COc1ccccc1-n1c(-c2ccncc2)n[nH]c1=S` gave AID504770 -0.8 and Ba CapD inh 0.65.
CC(C)(C)c1ncc(C(=O)O)cn1 was read as AID504770 -0.75.
For CCOc1ccc(CCN)cc1OCC the results were AID504770 1.4 and Ba CapD inh -0.74.
Cn1cnc(S(=O)(=O)N2CCN(c3ccccn3)CC2)c1 was read as AID504770 -0.6 and Ba CapD inh 11.
`Cc1onc(-c2ccccc2Cl)c1C(=O)Oc1cc(-c2ccccc2)no1` gave Ba CapD inh 0.29.
Screening CC(C)c1cc(=O)n2[nH]cnc2n1 returned AID504770 -0.6.
CCOC(=O)C1CCCN(C(=O)c2ccc(Cn3c(=S)[nH]c4cc(C(=O)OC)ccc4c3=O)cc2)C1 (stereo not given) was read as Ba CapD inh -0.81.
`CCOc1ccccc1CNC(=O)c1ccc2c(c1)N(C)CCS2` gave AID504770 -0.4 and Ba CapD inh 72.
For CCC(=O)Nc1nnc(-c2ccc(Cl)cc2)s1 the results were AID504770 -0.5 and Ba CapD inh inactive.
For CC(C)NC(=O)C1CC(c2ccccc2O)=NO1 (stereo not given) the results were AID504770 -1.1.
`Cc1ccc(Cl)cc1N1CCN(C(CC(=O)O)C(=O)c2ccc(F)cc2)CC1` (stereo not given) gave AID504770 -0.05.
O=C(c1ccc2c(=O)n(CCC3=CCCCC3)c(=S)[nH]c2c1)N1CCCCC1 was read as Ba CapD inh 0.09.
`COc1ccc(-c2nnc(SCC(=O)Nc3cc(C(C)(C)C)nn3-c3ccccc3)o2)cc1` gave AID504770 -0.55.
Cc1nc(N2CCOCC2)c2c(C)c(C(=O)NCc3ccccc3Cl)sc2n1 was read as Ba CapD inh 2.8.
`C(/C=C/c1ccccc1)=Nc1ccccc1` gave AID504770 2.1 and Ba CapD inh -0.74.
COC(=O)c1cc(NC(=O)c2ccco2)cc(C(=O)OC)c1 was read as AID504770 -0.65 and Ba CapD inh 0.46.
Screening CN(C)C(=O)Oc1cccc(C2C3=C(CC(C)(C)CC3=O)OC3=C2C(=O)CC(C)(C)C3)c1 returned Ba CapD inh -0.44.
Screening N#Cc1c(-c2ccc(Cl)cc2)nc(-c2cccnc2)nc1N1CCOCC1 returned Ba CapD inh 0.28.
O=C(CSC1=NS(=O)(=O)c2ccccc21)Nc1ccc(Br)cc1 was read as AID504770 0.05 and Ba CapD inh 0.22.
CCOC(=O)c1nnn(-c2nonc2N)c1CN1CCSCC1 was read as AID504770 -0.1 and Ba CapD inh 1.5.
Screening CCCSC1=C(C#N)C(c2cc(Br)c(O)c(OC)c2)CC(=O)N1 (stereo not given) returned AID504770 0.6 and Ba CapD inh 0.64.
For CCSc1sc(CC)cc1C1C(C(=O)Nc2cc(C)ccn2)=C(C)NC2=C1C(=O)CCC2 (stereo not given) the results were Ba CapD inh 0.045.
`NC(C(=O)O)C(c1ccc(O)cc1)C(F)F` (stereo not given) gave AID504770 0.
`CCc1ccc(NC(=O)c2cc3ccccc3oc2=O)cc1` gave AID504770 1.6 and Ba CapD inh -1.2.
COC(=O)C1=C(C)NC(C)=C(C(=O)OC)C1C(=O)OCC(=O)c1cc(C)n(C2CC2)c1C was read as AID504770 -0.4.
For Cc1ccccc1C1(c2ccccc2C)CC1C(=O)Nc1ccc(Br)cc1 (stereo not given) the results were Ba CapD inh -0.045.
`Cc1ccc(NC(=O)CSC2=C(C#N)C(c3cccs3)CC(=O)N2)cc1Cl` (stereo not given) gave Ba CapD inh 0.16.
`C=CCn1c(SCC(=O)NCCCN2CCOCC2)nc2sc3c(c2c1=O)CCCC3` gave Ba CapD inh -0.15.
Screening O=C(O)C(C(=O)/C=C/c1ccccc1)=C1SCCS1 returned AID504770 -0.6.
Cc1ccc(CS(=O)(=O)CCC(=O)N2CCC3(CC2)OCCO3)cc1 was read as AID504770 -1.4.
`Cc1ccsc1C1C2=C(CC(C)(C)CC2=O)OC2=C1C(=O)CC(C)(C)C2` gave Ba CapD inh -0.23.
Screening Cc1ccc(C)c(NC(=O)CSCc2cnn(-c3ccccc3)c2-n2cccc2)c1 returned AID504770 -0.1 and Ba CapD inh -0.28.
For COc1cccc(NC(=S)NNC(=O)CSCc2c(Cl)cccc2Cl)c1 the results were Ba CapD inh -0.25.
Screening COC(=O)c1ccc(Cn2nc(C)c(Br)c2C)o1 returned AID504770 0.1 and Ba CapD inh 0.35.
Screening Cc1ccc(S(=O)(=O)N2CCCCC2c2cccnc2)cc1 (stereo not given) returned AID504770 0.5 and Ba CapD inh 0.49.
Screening CCOC(=O)CSc1nnc(NCC(=O)OC)c(=O)[nH]1 returned AID504770 -0.7 and Ba CapD inh -0.045.
For C/C(=N\NC(=O)CN1C(=O)c2cccc3cccc1c23)C(C)(C)C the results were AID504770 0.65.
Screening O=C(Cc1ccccc1)Nc1ccc2c(c1)OCCO2 returned Ba CapD inh -0.24.
For O=C(Nc1sc2c(c1C(=O)Nc1ccccc1)CCCC2)c1ccccc1 the results were AID504770 1 and Ba CapD inh 21.
`O=C(NC1CCCC1)c1cc(=O)[nH]c2ccc(S(=O)(=O)N3CCCC3)cc12` gave AID504770 0.8 and Ba CapD inh 0.075.
Screening Cc1[nH]c(=O)[nH]c(=O)c1S(=O)(=O)N1CCCCC1C (stereo not given) returned AID504770 -0.75 and Ba CapD inh -0.48.
Oc1ccccc1C=Nc1ccc2ncccc2c1 was read as AID504770 -0.85 and Ba CapD inh 3.
For Cc1cccc(NC(=S)NC(C)(C)C)c1 the results were AID504770 -0.25&2.1 and Ba CapD inh 0.31.
Screening CCOC(=O)c1cnc(Nc2ccc(C)cc2)nc1C(F)(F)F returned AID504770 0.1 and Ba CapD inh -0.82.
Screening CCc1ccc(-c2ncnn2-c2cccc(Cl)c2C)cc1 returned AID504770 -0.05 and Ba CapD inh -0.82.
CC(=O)Oc1ccc2c(=O)c(Oc3ccc(Cl)cc3)coc2c1 was read as AID504770 2.8 and Ba CapD inh -0.46.
For O=C(CN1C(=O)C2CC=CCC2C1=O)OCc1cc(=O)n2c(n1)sc1ccccc12 (stereo not given) the results were AID504770 -0.5.
`CCCCc1c(O)nc(SCCC(=O)O)[nH]c1=O` gave AID504770 -0.2 and Ba CapD inh 0.33.
Screening CC1(C)CC(=O)C(C=NCC2CCN(C(=O)Nc3ccccc3)CC2)=C(O)C1 returned AID504770 -0.2 and Ba CapD inh 0.1.

4 entries out of the list, ordered by molecular weight, smallest number first:
Screening O=C(Cc1ccccc1)Nc1ccc2c(c1)OCCO2 returned Ba CapD inh -0.24.
`CCCCc1c(O)nc(SCCC(=O)O)[nH]c1=O` gave AID504770 -0.2 and Ba CapD inh 0.33.
Screening CC1(C)CC(=O)C(C=NCC2CCN(C(=O)Nc3ccccc3)CC2)=C(O)C1 returned AID504770 -0.2 and Ba CapD inh 0.1.
`O=C(NC1CCCC1)c1cc(=O)[nH]c2ccc(S(=O)(=O)N3CCCC3)cc12` gave AID504770 0.8 and Ba CapD inh 0.075.

(more compounds)
Screening Cc1cc(C)n(NC(=S)NC2CCCCC2)c(=O)c1C#N returned AID504770 0.6 and Ba CapD inh 0.09.
CCc1nnc(NS(=O)(=O)c2ccc(NC(=O)C(C)C)cc2)s1 was read as AID504770 0.7.
Screening COC(=O)c1cc(NC2=NS(=O)(=O)c3ccccc32)cc(C(=O)OC)c1 returned AID504770 0.65 and Ba CapD inh 1.1.
For COCCN(C(=O)Nc1ccc(OC)cc1OC)C1CCN(C(C)=O)CC1 the results were AID504770 -0.4 and Ba CapD inh -0.4.
`CCc1ccccc1NC(=O)CCCn1sc2ccccc2c1=O` gave AID504770 1.3 and Ba CapD inh 3.7.
Cc1ccc(S(=O)(=O)c2c[nH]c3cc4c(cc3c2=O)OCO4)cc1 was read as AID504770 0.2 and Ba CapD inh 2.
Screening Cc1cccc(OCCN)c1C returned AID504770 -1.1.
For Nc1ccc(OCCOc2ccc(N)cc2)cc1 the results were AID504770 -0.2 and Ba CapD inh 0.68.
Screening CCCN1CCC(NC(=O)Nc2ccc(OC)c(OC)c2)CC1 returned AID504770 0.5 and Ba CapD inh 0.4.
COC(=O)c1cc(OC)c(OC)cc1-n1cnc2cc(OC)c(OC)cc2c1=O was read as AID504770 1.2 and Ba CapD inh 1.3.
`COc1ccccc1C1=NN(C(=S)Nc2ccccc2)C(c2ccco2)C1` (stereo not given) gave AID504770 0.1 and Ba CapD inh -1.3.
Screening Cc1ccc(SCC(=O)N=C2NC(=O)CS2)cc1 returned AID504770 0.05 and Ba CapD inh -0.21.
Screening O=C(c1ccc(Cl)c(Cl)c1)c1cnc(-c2ccc(Cl)cc2)s1 returned Ba CapD inh -0.21.
Screening CC1CC(C)CN(C(=O)c2ccc(S(=O)(=O)N3CC(C)CC(C)C3)cc2)C1 (stereo not given) returned AID504770 0.3 and Ba CapD inh -0.15.
O=C(CC1NCCNC1=O)NC1Cc2ccccc2C1 (stereo not given) was read as AID504770 -0.65 and Ba CapD inh 0.24.
Screening CC1=C(C(=O)Nc2ccc(Br)cn2)C(c2cccs2)C2=C(CC(C)(C)CC2=O)N1 (stereo not given) returned Ba CapD inh 41.
CCOc1ccc(S(=O)(=O)NCC(=O)NC2CCCCC2)cc1 was read as AID504770 -0.7.
Cc1ccc(C(=O)COc2cc(C)nc3nncn23)cc1 was read as AID504770 -0.45 and Ba CapD inh -0.34.
`CCOC(=O)C1CCN(C(=O)C(C)n2ncn3cccc3c2=O)CC1` (stereo not given) gave AID504770 0 and Ba CapD inh 0.37.
For NS(=O)(=O)c1ccc(NC=C2C(=O)OC3(CCCCC3)OC2=O)cc1 the results were AID504770 -0.4 and Ba CapD inh -1.2.
`O=C(Cn1cnc2sc3c(c2c1=O)CCCC3)NCC(=O)N1CCN(c2cccc(Cl)c2)CC1` gave Ba CapD inh -0.43.
Cc1cc(-c2ccccc2)[nH]c(=O)c1S(C)(=O)=O was read as AID504770 1.4 and Ba CapD inh 1.6.
For COc1ccc(-c2cc(-c3ccc(Cl)c(Cl)c3)nc(N)c2C#N)cc1OC the results were AID504770 -0.2 and Ba CapD inh 20.
COc1cc(OC)c(NC(=O)N2CCC3(CC2)N=C(c2ccc(C)c(C)c2)C(=O)N3)cc1Cl was read as AID504770 0.7 and Ba CapD inh 0.11.

4 entries picked at random from those above, as already listed:
For COc1ccc(-c2cc(-c3ccc(Cl)c(Cl)c3)nc(N)c2C#N)cc1OC the results were AID504770 -0.2 and Ba CapD inh 20.
Screening CC1=C(C(=O)Nc2ccc(Br)cn2)C(c2cccs2)C2=C(CC(C)(C)CC2=O)N1 (stereo not given) returned Ba CapD inh 41.
`CCOC(=O)C1CCN(C(=O)C(C)n2ncn3cccc3c2=O)CC1` (stereo not given) gave AID504770 0 and Ba CapD inh 0.37.
CCOc1ccc(S(=O)(=O)NCC(=O)NC2CCCCC2)cc1 was read as AID504770 -0.7.

New compounds follow
For O=C1C2CN3CCN(C2)CC1(c1ccccc1)C3 the results were AID504770 1.8 and Ba CapD inh -0.11.
`NC(N)=NCCS(=O)(=O)O` gave Ba CapD inh -0.19.
CC(C)=CCc1c(O)cc(O)c2c1OC(c1ccccc1)CC2=O (stereo not given) was read as AID504770 0.15.
CCOC(=O)C1SC(C)=NC1=O (stereo not given) was read as AID504770 -0.4.
Screening O=[N+]([O-])c1ccc(O)c(C2Nc3ccccc3C(c3ccccc3)(c3ccccc3)O2)c1 (stereo not given) returned Ba CapD inh -0.85.
`CCOC(=O)NN1C(=O)c2cccc3cccc(c23)C1=O` gave Ba CapD inh 81.
`COc1ccc(-c2cc3nc(C)c(CCC(=O)N4CCc5ccccc54)c(C)n3n2)c(OC)c1` gave AID504770 -0.15 and Ba CapD inh 9.7.
`CCOC(=O)c1cnn(-c2c(Cl)cc(Cl)cc2Cl)c1C` gave Ba CapD inh 0.03.
For COC(=O)c1cc(OC(=O)Cc2coc3cc(OC)ccc23)cc(C(=O)OC)c1 the results were AID504770 -0.05.
`Cc1ccc2c(CNC3CCCC3)c(C(=O)O)n(C)c2c1` gave AID504770 -0.55 and Ba CapD inh 0.34.
O=C(CSc1cccc2cccnc12)Nc1cccc(C(F)(F)F)c1 was read as AID504770 2.1 and Ba CapD inh 40.
For c1ccc(-n2ncc3c(N4CCN(Cc5nc6ccccc6[nH]5)CC4)ncnc32)cc1 the results were Ba CapD inh -0.18.
`CC(C)OC(=O)c1cc2ccc(O)cc2oc1=O` gave AID504770 -0.05 and Ba CapD inh 88.
Screening NS(=O)(=O)c1ccc(CCn2ccn(CC(=O)NCCC3=CCCCC3)c(=O)c2=O)cc1 returned AID504770 -1.2 and Ba CapD inh -0.4.
Cc1cccc(C)c1OCC(=O)N=Nc1c(O)n(CN2CCN(C)CC2)c2ccc(Br)cc12 was read as AID504770 -0.3 and Ba CapD inh 0.035.
Screening CCc1ccc(NC(=O)Cc2ccc(NC3=NC4CS(=O)(=O)CC4S3)cc2)cc1 (stereo not given) returned AID504770 1.1 and Ba CapD inh -0.17.
